D2 PAM – positive allosteric modulators of human D2 dopamine receptor; hit rate 0.23% among 360,000; potentiation, % (test concentration not listed); DiscoveRx D2 beta-arrestin cells, luminescence, 90 min; 100% = 57 uM dopamine signal; active = potentiation of 50% or more; inconclusive = 30% to 50%; inactive = 30% or less;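 further: compound concentration not given in the record; tested on top of an EC20 dose of dopamine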
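PathHunter D2 cells, attached overnight at 37 deg C, received compound in DMSO plus dopamine at EC20 (50 nM final) for 90 min at 37 deg C. Beta-arrestin recruitment was read as luminescence after 1 h with detection reagent at ambient temperature.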
gsp ag – agonists of gsp mutant (McCune-Albright syndrome); hit rate 0.13% among 340,000; gsp mutant cells, cAMP HTRF, 30 min; control for the full effect not named in the record; Potency, µM (doses to about 76.9 µM), for inactives: at the highest dose activation (cAMP increase), usual class: activators; active = well fitted activation curve with a large enough effect; inconclusive = small, poorly fitted or top-dose-only effect, or another doubt; inactive = no such curve, though single readings can be large or run the other way; cell line not stated here;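 further: phosphodiesterase inhibitor Ro 20-1724 added with compounds to block cAMP breakdown; potency means the concentration at half of the fitted maximal effect; nearly all actives have a fitted effect of over 60% in size; about a fifth of the inactives were tested at one dose only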
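Cells in DMEM/10% FBS with G418 were pretreated with compounds in DMSO plus […] (300 uM stock) for 30 min at 37C. cAMP was measured by HTRF (cAMP-d2 plus anti-cAMP antibody-K) after 30 min at room temperature.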
D2 ag – human D2 receptor agonism in beta-arrestin assay; P14416; DiscoveRx PathHunter D2 beta-arrestin, luminescence, 90 min; 100% = 57 uM dopamine signal; activation, % (no concentration beside the values); hit rate 0.084% among 360,000; AID 624465; in the data active = activation above about 40%; inconclusive = about 15% to 40%; inactive = below about 15%; further: compound concentration not given in the record; the text of the record calls up to 30% inactive
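Agonist mode: compounds alone added to overnight-plated D2 PathHunter cells for 90 min at 37 C, with 57 uM final dopamine (EC100) defining full response. Beta-arrestin recruitment detected by chemiluminescent reagent, read after 1 h at ambient temperature.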
gsp antag – gsp mutant antagonism; Potency, µM (doses to about 76.9 µM), without a hit: top-dose activity change, negative = inhibition, hits mostly inhibitors; gsp-mutant cells, cAMP HTRF, 30 min; control for the full effect not named in the record; hit rate 0.4% among 340,000; active = falling curve of any shape with a large fitted effect; inconclusive = falling curve, mostly with a smaller effect; inactive = flat or rising curve; cell line not stated here;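 further: intracellular cAMP measured with PDE inhibitor Ro 20-1724 present during compound exposure; potency means the concentration at half of the fitted maximal effect; on the % scale 0 is the no-effect control and ±100 the full control effect; nearly all actives have a fitted effect of over 65% in size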
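G418-selected cells were plated in DMEM/10% FBS for 16-24 h at 37C, then treated with compounds plus the PDE inhibitor […] (300 uM solution added) for 30 min at 37C. Intracellular cAMP was measured by HTRF after 30 min lysis at room temperature.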
Six1-Eya2 blk – inhibitors of human Six1/Eya2 interaction; Q15475+O00167; AlphaScreen GST-Six1/His-Eya2 binding, biochemical; hits give low values; control for the full effect not named in the record; activity change, % (no concentration beside the values); hit rate 0.56% among 360,000; in the data active = activity change below about -65%; inconclusive = about -30% to -65%; inactive = above about -30%; further: on the % scale 0 is the no-effect control and ±100 the full control effect; compound concentration not given in the record
Target sequence (O00167 whole entry, looked up): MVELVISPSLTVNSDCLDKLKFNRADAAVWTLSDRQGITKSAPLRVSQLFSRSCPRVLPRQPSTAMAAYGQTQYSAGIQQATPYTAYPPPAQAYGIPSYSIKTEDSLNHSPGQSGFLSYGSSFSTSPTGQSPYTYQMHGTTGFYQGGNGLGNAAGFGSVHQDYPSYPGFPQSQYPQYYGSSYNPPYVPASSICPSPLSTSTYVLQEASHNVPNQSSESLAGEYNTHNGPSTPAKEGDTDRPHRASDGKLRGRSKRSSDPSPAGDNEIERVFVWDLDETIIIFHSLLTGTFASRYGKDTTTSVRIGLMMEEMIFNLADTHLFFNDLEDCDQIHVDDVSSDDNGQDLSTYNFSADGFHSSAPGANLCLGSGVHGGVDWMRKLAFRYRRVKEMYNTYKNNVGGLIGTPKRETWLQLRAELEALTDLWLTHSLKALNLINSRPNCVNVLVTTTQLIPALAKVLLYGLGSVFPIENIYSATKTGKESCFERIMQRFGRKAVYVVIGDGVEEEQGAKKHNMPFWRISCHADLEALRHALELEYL
Target sequence (Q15475 whole entry, looked up): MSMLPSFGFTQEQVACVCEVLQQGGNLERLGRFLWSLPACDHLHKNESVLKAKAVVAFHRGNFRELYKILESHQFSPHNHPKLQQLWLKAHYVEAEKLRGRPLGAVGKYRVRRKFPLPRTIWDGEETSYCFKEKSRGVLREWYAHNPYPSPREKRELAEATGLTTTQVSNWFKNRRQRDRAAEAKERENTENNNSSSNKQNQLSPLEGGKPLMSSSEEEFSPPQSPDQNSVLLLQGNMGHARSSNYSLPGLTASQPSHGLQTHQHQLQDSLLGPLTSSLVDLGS
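AlphaScreen with GST-Six1 and His-Eya2 (5X mix: 250 nM and 500 nM), glutathione donor and nickel acceptor beads; buffer 50 mM Tris pH 8.0, 300 mM NaCl, 1 mM TCEP; 1 h at 37 C in the dark.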
CtBP-E1A inh – CtBP/E1A binding inhibition; AlphaScreen GST-E1A/His-CtBP binding, 1536-well; hits give low values; control for the full effect not named in the record; activity change, % (no concentration beside the values); hit rate 0.49% among 340,000; in the data active means activity change below about -65%; inconclusive means about -30% to -65%; inactive means above about -30%; further: on the % scale 0 is the no-effect control and ±100 the full control effect; compound concentration not given in the record
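Steps: dispense buffer (Tris pH 8.0, NaCl 300 mM, TCEP 1 mM, BSA, Tween 20); add 5X protein mix (GST-E1A, His-CtBP, 125 nM each); pin 23 nL compound; 2 h at 37 °C, dark; add 5X beads (50 ug/mL); 1 h; read.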
* marks the source's active call; other numbers are inactive results; ? = inconclusive; . = no result given; [ ] = remark or other dose. The order is random. Share with any hit: about 1.4%.

D2 PAM | gsp ag | D2 ag | gsp antag | Six1-Eya2 blk | Structure | CtBP-E1A inh
-4.3 | -1.8% | 1.1 | 11.8% | 2.2 | COc1ccc(/C(C)=N/NC(=O)CNC(=O)c2cccnc2)cc1OC | -22.7
-3.7 | -5.4% | 5.6 | -5.1% | -16.7 | CCn1c(=O)n(CC)c2cc(N3CCCC3)c(NC(=O)c3ccccc3Br)cc21 | .
0.4 | 4.8% | 0.5 | 8.4% | 11.9 | Nc1ncnc2c1cnn2C1CCCCC1 | 4.6
-13.7 | -4.6% | 0.2 | 14.4% | 2.8 | CCCNCC1COc2ccccc2O1 (configuration not stated) | -1.4
-29.5 | 2.4% | -1.5 | -1.7% | -0.1 | Cc1cccc(-n2c(SCC(=O)Nc3nnc(C)s3)nnc2-c2ccoc2C)c1 | 1.1
-1.1 | ? | 3.9 | 8.8% | 7.7 | O=C(NCc1ccccc1)c1ccc2c(=O)n3c(nc2c1)CCCCC3 | -1.9
-6.4 | -28.8%[15.4 µM] | -1.2 | 4.8% | -8.1 | O=C(CN(C(=O)c1csnn1)c1cccc(F)c1)NC1CCCC1 | 1.7
-2.7 | 13.9% | -2.5 | 8.8% | -7.7 | O=c1[nH]nc(-c2n[nH]c(=O)o2)o1 | 0.2
-9.1 | 9.0% | 0.4 | 2.6% | 7.2 | CCC1C(=O)N=C(SCC(=O)Nc2ccccc2)NC1=O (configuration not stated) | 17.0
-4.8 | 12.6% | -0.5 | -3.5% | 4.3 | Cc1ccc2nsnc2c1S(=O)(=O)NCc1ccc2c(c1)OCO2 | 0.0
-7.0 | -3.5% | -2.6 | -3.6% | -3.1 | Nc1ccc2nc(NC(=O)C3CCCCC3)sc2c1 | -13.7
1.0 | 8.2% | 3.0 | 3.7% | -2.9 | CCOC(=O)c1cccc(S(=O)(=O)N2CCCC2)c1 | -1.4
-6.7 | ? | 1.6 | -5.9% | -1.8 | CCn1c(=O)cc(SCC(=O)N2CCOCC2)c2ccccc21 | 5.5
-18.0 | -16.1% | -4.6 | -1.0% | -2.6 | CCOC(=O)c1c(CN2CCCCC2)n(C)c2cc(Br)c(O)cc12 | -0.9
-4.9 | -5.2%[15.4 µM] | 3.3 | 8.6% | 0.1 | Cc1ccc(C(=O)N2CCOCC2)cc1S(=O)(=O)N1CCOCC1 | 5.3

Further structures follow.
D2 PAM | gsp ag | D2 ag | gsp antag | Six1-Eya2 blk | Structure | CtBP-E1A inh
-6.5 | -5.5%[15.4 µM] | 2.6 | 1.8% | -6.1 | Cn1ccnc1C1CCCCN1Cc1nc(Cc2cccc(C(F)(F)F)c2)no1 (configuration not stated) | -11.5
-6.8 | . | -11.6 | . | ? | Fc1cccc(Cc2c(-c3ccco3)nc3ccc(Br)cn23)c1 | 0.8
-1.9 | 4.3% | 1.1 | 6.9% | -5.4 | COc1ccc(NC(=O)CN2CC(C)OC(C)C2)cc1Cl (configuration not stated) | 4.8
3.1 | -38.2%[inhibitor] | 14.6 | -7.8% | -12.7 | COc1ccc(CN2CCN(C(=O)c3cccs3)CC2)cc1Br | -8.4
-3.6 | -0.3% | -2.6 | 0.9% | 1.8 | O=C(O)C1C(c2ccccc2)c2ccccc2C(O)C1CO (configuration not stated) | -18.5
-19.6 | -2.2% | -2.3 | -24.4% | -8.8 | O=S(=O)(c1ccccc1)N1N=C(c2ccc(Cl)cc2)CC1c1ccco1 (configuration not stated) | -4.4
-1.3 | ? | 0.5 | ? | 2.6 | CN(C)S(=O)(=O)c1cc(C(=O)O)c(NC2CCCCC2)cc1Cl | 1.4
-8.5 | -41.6%[inhibitor] | -4.1 | -10.3% | 47.5 | Cc1cc(C)n(-c2nc3ccccc3nc2N2CCC(C)CC2)n1 | 34.7
-4.6 | 0.1% | -1.5 | 2.1% | -2.2 | Cc1ccc2c(c1)[C@H]1[C@H](CO2)[C@H](c2ccccc2)[C@]2(C)C(=O)NCC(=O)N12 | 9.4
-6.6 | 11.8%[15.4 µM] | -1.3 | -20.2% | -14.8 | CCOc1cc(C(=O)Nc2ccc(S(=O)(=O)NC3=NCCCCC3)cc2)cc(Br)c1OC | -3.0
-2.7 | -57.0%[inhibitor] | -0.9 | 2.0% | -4.9 | COc1cc(C2C(C#N)=C(N)Oc3c2oc(CO)cc3=O)ccc1OC(C)C (configuration not stated) | -0.8
-3.6 | -0.3% | -3.5 | 13.9% | -0.2 | CC(=O)Nc1ccc(NC(=O)Nc2ccccc2)cc1 | 0.5
-2.0 | -8.2%[15.4 µM] | 4.3 | -5.5% | -5.2 | CC(C)NS(=O)(=O)c1ccc(CCC(=O)N2CCCC2)cc1 | .
-3.8 | -67.0%[inhibitor] | 11.5 | -5.4% | -4.1 | CNC(=S)N/N=C/c1ccc(OCc2ccccc2)c(Br)c1 | 6.9
13.1 | 3.9% | -0.1 | -0.2% | 4.6 | Cc1ccn2cc(-c3nonc3C)cc2c1 | 75.0

Other structures
D2 PAM | gsp ag | D2 ag | gsp antag | Six1-Eya2 blk | Structure | CtBP-E1A inh
-11.7 | -4.8% | -0.7 | -16.2% | ? | Cc1ccc(-n2cc(-c3ccc([N+](=O)[O-])cc3)[nH]c2=S)c(C)c1 | ?
-0.8 | -1.0%[15.4 µM] | -0.9 | 3.6% | -3.2 | CCN(CC)S(=O)(=O)c1ccc(Cl)c(C(=O)OC2CC(C)OC2=O)c1 (configuration not stated) | 7.7
-1.1 | -5.4% | -1.5 | 5.2% | -6.7 | Cn1cncc1C#Cc1ccc2cc(CCO)oc(=O)c2c1 | -0.5
-7.7 | -7.3% | -3.9 | -0.2% | -6.2 | CC[C@@H]1[C@H]2CCCC(=O)N3CC[C@@H](C[C@@H]1Nc1ccccc1)[C@@H]23 | -1.2
-11.5 | ? | -4.3 | -13.0% | -14.6 | COc1cccc(C(=O)c2c[nH]c(C(=O)NCc3ccco3)c2)c1 | -2.5
-13.0 | 11.8% | 0.3 | -37.5% | 3.6 | C=CCN1C(=O)CSc2ccc(C(=O)NCCC3=CCCCC3)cc21 | -0.6
3.6 | -2.0% | 2.2 | 15.2% | 22.2 | Cc1ccc(CNC(=O)CCS(=O)(=O)c2ccc3c(c2)oc(=O)n3C)cc1 | 3.3
. | . | 0.0 | 12.4% | -1.6 | NC(=O)c1ncn([C@@H]2O[C@H](CNC(=O)[C@@H](N)Cc3cccnc3)[C@@H](O)[C@H]2O)n1 | 4.9
-28.8 | 22.1% | -4.0 | -3.4% | 20.0 | CC(=O)Nc1ccc(N2C(=O)c3ccc(S(=O)(=O)c4ccc(C(=O)O)cc4)cc3C2=O)cc1 | 2.9
6.3 | 8.3% | -3.6 | -12.4% | 0.8 | COC(=O)CSC1=C(C#N)C(c2ccc(C(C)C)cc2)CC(=O)N1 (configuration not stated) | -1.7
-0.8 | 11.2%[15.4 µM] | -16.9 | 3.2% | 3.5 | O=C(Nc1cc(C(F)(F)F)ccc1-n1cnc2ccccc21)c1ccccc1 | -2.2
-8.5 | ? | -1.3 | 16.1% | 4.1 | O=C(NC1CC1)C1CCN(C2CCN(C(=O)c3ccc(C(F)(F)F)cc3)CC2)CC1 | 8.5
-10.9 | -10.3% | 2.2 | 0.7% | -23.0 | COc1cc2nc(Nc3ccc(C)c(Cl)c3)nc(N)c2cc1OC | ?
-11.9 | 6.8%[15.4 µM] | 0.8 | -14.2% | 2.5 | CCc1nnc(NC(=O)CN2CCN(Cc3cccc(Cl)c3)CC2)s1 | 7.3
-6.7 | 7.5%[15.4 µM] | -1.0 | 9.3% | -3.8 | Cc1noc(C)c1C(=O)OCC(=O)NCCc1ccc(S(N)(=O)=O)cc1 | 2.2

Some entries already given, showing only D2 ag, CtBP-E1A inh and D2 PAM.
Structure	D2 ag	CtBP-E1A inh	D2 PAM
NC(=O)c1ncn([C@@H]2O[C@H](CNC(=O)[C@@H](N)Cc3cccnc3)[C@@H](O)[C@H]2O)n1	0.0	4.9	.
CC(=O)Nc1ccc(N2C(=O)c3ccc(S(=O)(=O)c4ccc(C(=O)O)cc4)cc3C2=O)cc1	-4.0	2.9	-28.8
COC(=O)CSC1=C(C#N)C(c2ccc(C(C)C)cc2)CC(=O)N1 (configuration not stated)	-3.6	-1.7	6.3

Next entries.
D2 PAM | gsp ag | D2 ag | gsp antag | Six1-Eya2 blk | Structure | CtBP-E1A inh
-27.7 | -0.4% | -2.9 | -4.9% | -23.5 | Cc1sc2nc(SCC(=O)Nc3cccc(C(=O)O)c3)[nH]c(=O)c2c1C | -14.3
-6.8 | -9.7% | -1.5 | 16.3% | -11.7 | CN1CCN(/N=C/c2ccc(Br)cc2)CC1 | -8.5
-3.2 | -2.1%[15.4 µM] | 5.9 | 11.0% | 2.6 | Cc1ccc(N(CC(O)CN2CCOCC2)S(=O)(=O)c2ccc([N+](=O)[O-])cc2)cc1 (configuration not stated) | -19.9
3.0 | -10.4%[15.4 µM] | -2.5 | 5.3% | -0.6 | Cc1ccc(-c2nnc(N)o2)cc1 | -13.0
-2.2 | ? | -2.4 | 3.7% | 4.1 | Cc1nn(Cc2ccc(Cl)cc2Cl)c(C)c1NC(=O)c1nc2n(n1)C(C(F)F)CC(C)N2 (configuration not stated) | -6.1
-4.5 | . | -4.0 | -4.4% | -0.3 | O=C(NC1CC1)C1=C[C@H](C2CCCCC2)C[C@H](OCCCCO)O1 | -8.3
1.9 | 11.4% | 1.4 | 1.0% | -12.3 | CC1(C)CC(=O)C2=C(C1)N(Cc1ccco1)C(=O)C2(NC(=O)c1ccc(Cl)cc1Cl)C(F)(F)F (configuration not stated) | 3.6
7.8 | 0.0% | 3.6 | -2.5% | ? | CCNC1=C(Cl)C(=O)c2ccccc2C1=O | ?
23.4 | -12.6% | 1.4 | 9.4% | ? | Cc1cc(C)cc(OCC(=O)Nc2ccc(N3CCCC3)cc2)c1 | -29.0
-14.8 | 21.3% | -4.1 | -0.8% | 7.2 | CCn1c(O)c(C=Nc2ccccc2)sc1=O | 3.3
-12.8 | ? | -4.8 | 5.0% | -0.4 | CC1(C)N=C(N)N=C(N)N1c1ccc(Oc2ccc(Cl)cc2)c(Cl)c1 | -6.2
-9.7 | 5.9% | -1.7 | -0.5% | 0.1 | CCCN(CC(=O)Nc1ccccc1OC)C(=O)CCCN1C(=O)c2ccccc2C1=O | -1.1
-1.6 | -20.6% | -5.3 | -11.6% | -4.2 | CC(C)(C)c1ccc(C(=O)NCC(=O)OCN2C(=O)c3ccccc3C2=O)cc1 | -2.7
-2.4 | -11.6% | -1.0 | ? | -17.4 | Cn1c(N)c(C(=O)COC(=O)/C=C/c2cccc(Br)c2)c(=O)n(C)c1=O | .
4.2 | 9.1% | -2.5 | 3.6% | -8.1 | COc1cc(NC(=O)Nc2cc(C)on2)cc(OC)c1OC | -6.5

Screening results deposited in PubChem BioAssay by National Center for Advancing Translational Sciences (NCATS).
